Source: PubChem BioAssay
KSHV LANA nucl – inhibitors of KSHV LANA-nucleosome binding, primary screen, biochemical, fluorescence polarization, FITC-LANA1-23, chicken nucleosomes. AID 720717, 2013. 51,000 compounds, 0.3% hits. FITC-LANA1-23 / chicken nucleosome fluorescence polarization; active compounds read low. z-score (no concentration beside the values);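 active = both repeat wells score below -2 in polarization z-score versus plate sample wells, excluding overly bright wells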;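 note: 100 nL library stock added to about 30 µL; numbers are from one replicate; some results filed as inactive read as strong as hits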
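Test system: purified chicken nucleosomes with FITC-labelled LANA N-terminal peptide (1-23); Input: 240 nM purified chicken nucleosomes (480 nM peptide binding sites), final; Medium: TEN-BT buffer, pH 7.5; Timing: 10–45 min, room temperature; Technique: fluorescence polarization, 480 nm excitation, 535 nm parallel and perpendicular emission; Replication: duplicates.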
Ab BasE inh – BasE siderophore enzyme inhibitors, primary screen, biochemical, Acinetobacter baumannii ATCC 17978, fluorescence polarization; purified BasE, fluorescence polarization binding displacement; inhibition, % (concentration not given with the values); 84,000 compounds, 0.1% hits; AID 485350, 2010;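 active = both replicates above 25% with normal brightness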;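 note: 0% = negative plate control signal and 100% = positive plate control signal; stock transfer was 100 nL into about 30 µL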
An asterisk follows results filed as active; · = no result given; & = joins results of further samples. An excerpt; count on the stated rates, not on these rows.

SMILES	KSHV LANA nucl	Ab BasE inh
O=C1CC(SCc2nc3ccccc3[nH]2)C(=O)N1c1ccc(F)cc1 (stereo not given)	1.56	-1.3
Nc1nc2ccc(C(=O)O)cc2s1	0.7	-0.8
O=C1NCCN1CCN1C(=O)c2ccccc2NC1c1ccccc1 (stereo not given)	·	-1.1
O=C(CN1CCCCC1)N1c2ccccc2Sc2ccccc21	-0.843	·
O=S(=O)(c1ccccc1)c1ccc(N2CCCCC2)cc1	-0.968	-0.2
O=C(CN1C(=O)NC(c2ccccc2)(c2ccccc2)C1=O)c1ccc[nH]1	·	-1.7
COCCNC(=O)c1cc(-c2cccnc2)nc2ccc(S(=O)(=O)N3CCCCCC3)cc12	-0.034	-1.7
N#CSc1ccc(N)c(Br)c1	·	-0.6
O=S(=O)(c1cc(Cl)cc(Cl)c1)N1CC=C(c2ccccc2)CC1	-0.184	·
C=CCN1C(=O)S/C(=C\c2ccc(CC)s2)C1=O	0.415	1.4
O=C(c1ccccc1)N1CCC(C2CCNCC2)CC1	-1.34	-1.0
CC1Cn2cc(C(=O)N3CCN(Cc4ccc5c(c4)OCO5)CC3)c(=O)c3c(Cl)ccc(c32)O1 (stereo not given)	0.091	-2.6
Cc1nnsc1C(=O)NC1CCCCC1	-0.864	·
COc1ccc2cc(CCNS(=O)(=O)c3ccccc3)c(=O)[nH]c2c1	-0.558	-1.2
O=S(=O)(NC1Cc2ccccc2C1N1CCCC(C(F)(F)F)C1)c1ccccc1 (stereo not given)	·	1.1
COc1ccc(-c2cc(N)n(CCC#N)n2)c(OC)c1	0.435	0.8
CCOC(=O)c1cnn(CCOC(=O)CC)c1NC(=O)CC	-0.853	-1.0
O=C(NCC1CCCO1)C1CC(c2ccccc2O)=NO1 (stereo not given)	-1.1	1.3
CCCCOc1ccc2nc3c(nc2c1)C(=O)c1ccccc1C3=O	-0.427	-0.3
CN1CC=C2C(C#N)=C(N)C(C#N)(C#N)C(c3ccccc3)C2C1 (stereo not given)	0.855	3.3
COc1ccc(CNc2ncnc3ccccc23)cc1	·	-2.3
N#Cc1c(CN2CCOCC2)cn2ccccc12	·	-0.7
CC1=NNC(=O)C1Oc1ccc(Cl)cc1Cl (stereo not given)	·	3.8
Cc1nc2c(c(C)c1CCC(=O)NCC1CCN(CC(C)C)C1)c(=O)n(C)c(=O)n2C (stereo not given)	-0.58	-1.0
CC(C)C(C)(C#N)NC(=O)CSc1nc2ccccc2c(=O)n1C1CCCC1 (stereo not given)	·	4.1
CC1CCCN(c2ccc3nncn3n2)C1 (stereo not given)	·	2.0
CCCc1nn2c(=O)cc(COc3cccc(NC(=O)c4ccccc4)c3)nc2s1	2.75	-2.1
O=S(=O)(NN=C1CCCCC1)c1ccccc1	1.67	-3.3
CCn1cc(S(=O)(=O)c2ccccc2)c(=O)c2cc(F)ccc21	0.202	1.9
N#Cc1ccsc1NC(=O)c1ccc(S(=O)(=O)N2CCOCC2)cc1	0.368	-3.2

Continued, overlapping the part above by 6 compounds.
SMILES	KSHV LANA nucl	Ab BasE inh
CC(C)C(C)(C#N)NC(=O)CSc1nc2ccccc2c(=O)n1C1CCCC1 (stereo not given)	·	4.1
CC1CCCN(c2ccc3nncn3n2)C1 (stereo not given)	·	2.0
CCCc1nn2c(=O)cc(COc3cccc(NC(=O)c4ccccc4)c3)nc2s1	2.75	-2.1
O=S(=O)(NN=C1CCCCC1)c1ccccc1	1.67	-3.3
CCn1cc(S(=O)(=O)c2ccccc2)c(=O)c2cc(F)ccc21	0.202	1.9
N#Cc1ccsc1NC(=O)c1ccc(S(=O)(=O)N2CCOCC2)cc1	0.368	-3.2
Cc1c(/C=N\NC(=O)OC(C)(C)C)c2ccccc2n1C	-0.933	0.1
CCCCN1C(=O)C2Cc3c([nH]c4ccccc34)CN2C1=S (stereo not given)	6.59	-30.5
CC[C@H](C)C(=O)O[C@H]1CCC=C2C=C[C@H](C)[C@H](CC[C@@H]3C[C@@H](O)CC(=O)O3)[C@H]21	-0.166&-0.0575	·
CCCCNc1ccccc1C(=O)O	·	0.8
COc1cc(CN(C)Cc2cc3c(cc2O)CCC3)ccc1OC(F)F	·	3.9
CCC(c1nnc(SCC(=O)NCC(C)C)o1)N(C)C (stereo not given)	·	0.1
O=C1CC(SCCO)C(=O)N1c1ccccc1 (stereo not given)	0.171	2.6
CC(C)N(CC(N)=O)C(=O)c1ccccc1Nc1ccc(F)cc1	·	0.6
CC(=O)Nc1ccc(Cc2ccncc2)cc1	-1.25	3.1
O=C(NN1C(=O)c2ccccc2C1=O)C1CC2CCC1C2 (stereo not given)	-1.12	1.4
COc1nc(OC)nc(N2CCN(c3cccc(C(F)(F)F)c3)CC2)n1	0	2.2
COc1cc(/C=C2\SC(=O)N=C2N)ccc1O	0.0455	-0.6
COc1ccc(Nc2nccc(-c3cccc(C#N)c3)n2)cc1	-0.036	1.9
COc1ccc(-c2ccc(CNCCN3CCOCC3)o2)cc1Cl	-1.3	-4.2
CCN(CC)c1ncnc(Cl)c1Cc1ccc(OC)cc1	0.144	2.0
CC(C)(C)NC(=O)COc1ccc(CO)cc1	-0.309	3.3
COC(=O)[C@@H](Cc1c[nH]c2ccccc12)NC(=O)c1ccc2c(c1)OCO2	·	14.4
Cc1ccc2nc(SCC(=O)NC(C)C)nc(=O)n2c1	-0.272	0.6
Cc1sc2nc(SCc3cc(=O)[nH][nH]3)n(Cc3ccco3)c(=O)c2c1C	-0.14	2.2
CCOC(=O)c1ccc(N2C(=O)CC(SCC(=O)Nc3ccc(S(N)(=O)=O)cc3)C2=O)cc1 (stereo not given)	·	0.0
COc1ccc2c(CC(=O)OCC(=O)c3cc(C)n(-c4ccc5c(c4)OCO5)c3C)coc2c1	·	0.3
COc1cc(/C=C2\N=C(c3ccccc3)OC2=O)cc(Br)c1OCc1c(C)no[n+]1[O-]	·	-2.9
CC(C)=C1Cc2cc3ccc(=O)oc3cc2O1	-0.217	1.6
COc1ccc(CN2C(=O)c3cccnc3C2=O)cc1S(=O)(=O)N1CC(=O)Nc2ccccc21	0.713	-1.0
Cc1cc(=O)oc2cc(OCC(O)CNCc3cn4c(C)csc4n3)ccc12 (stereo not given)	·	0.9
O=C(c1cccs1)N1CCCn2c(SCc3ccccc3)nnc21	·	-1.3
CCc1nc2ccccc2c(C(=O)OC2CCCC2=O)c1C (stereo not given)	·	-0.4
CCOc1ccc(S(=O)(=O)N(C)c2ccc(OCC(=O)NCCCn3ccnc3)cc2)cc1	·	0.1
C=CCn1c(SC2CCOC2=O)nc2scc(C3CC3)c2c1=O (stereo not given)	·	0.3
CCn1c(SCC(=O)OCC(=O)N2CCc3ccccc32)nnc1-c1cccs1	·	-10.4
O=C(c1ccc(Cl)cc1)N1CCCOC1	1.11	-1.1
CCc1ccc(NC(=O)CSc2nnc(C(C)C)n2CC)cc1	-1.65	-0.3
COc1ccc(S(=O)(=O)Nc2cc(Cl)ccc2Sc2nncn2C)cc1Br	·	1.8
CNC(=O)Cn1nc(C)n2cccc2c1=O	-0.263	0.6
COc1ccc(N2CCN(C(=O)C3c4ccccc4C(=O)N4CCc5cc(OC)c(OC)cc5C34)CC2)cc1 (stereo not given)	0.499	1.5
CC1CN(C(=O)CC(C)c2ccccc2)CC(C)O1 (stereo not given)	0.403	3.8
Oc1ccccc1CN(Cc1ccco1)CC(O)COc1ccc(Cl)cc1Cl (stereo not given)	·	2.5
Nc1ccc(CC2C(=O)Nc3ccccc32)cc1 (stereo not given)	-0.977	1.9
C/C(Nc1ccccc1Oc1ccccc1)=C1/CCOC1=O	-0.694	·
COc1ccc(-n2c(C)cc(-c3csc(NC(=O)CC(C)(C)C)n3)c2C)cc1	·	-1.6
Cc1ccc2c(c1)-c1c(cnn1CC(=O)Nc1cccnc1Cl)CO2	0.224	-0.9
CCc1ccccc1NC(=O)CN(C)C(=O)Cn1cnc2ccc(Cl)cc2c1=O	·	3.2
O=C1C(c2ccncc2)N(CCC2=CCCCC2)C(=O)CN1C1CCCCC1 (stereo not given)	0.0715	0.7
COc1cn(-c2ccccc2)nc1C(=O)OC(C)C(N)=O (stereo not given)	·	0.4
CN(C1CCCCC1)S(=O)(=O)c1ccccc1NC(=O)c1ccc[nH]c1=O	·	3.5
CC(NS(=O)(=O)c1ccc(Br)cc1)C(c1cccs1)N1CCOCC1 (stereo not given)	-1.04	-0.3
N#C/C(=C/c1ccc(Sc2nc3ccccc3[nH]2)o1)C(=O)N1CCOCC1	-0.508	-1.0
C=CCNC(=O)c1ccc(NC2=NC3CS(=O)(=O)CC3S2)cc1 (stereo not given)	0.65	1.3
O=C(Cc1cccs1)N/N=C/c1ccc(C(=O)O)cc1	0.0175	3.8
COc1ccc(NC(=O)CN(C)C(=O)c2ccc3c(c2)NC(=O)CS3)cc1	·	-1.6
COc1ccc(N(C(=O)C(C)C)S(=O)(=O)c2cccs2)cc1	-0.529	0.5
CNS(=O)(=O)c1cn(CC(=O)Nc2ccccc2)cc1S(=O)(=O)NC	·	3.4
COc1ccccc1NC(=O)Cn1c(=O)c(N(C)C)c(N)n(C)c1=O	·	0.7
CCC1CCCCN1C(=O)COC(=O)c1nc(Cl)c(Cl)c(N)c1Cl (stereo not given)	·	-0.3
OCCSc1c(F)c(SCCO)c(SCCO)c(F)c1SCCO	-0.304	0.3
CSC1=NCCN1C(=O)C1CCCCC1	0.665	2.7
Cc1cc(C)c2c(n1)OC(N1CCOCC1)(C(F)(F)F)CC2=O (stereo not given)	-0.0875	1.6
COc1cccc2cc(-c3csc(Nc4cccc(C(F)(F)F)c4)n3)c(=O)oc12	·	1.6
O=C(Nc1ccc(Cn2nnc3ccccc32)cc1)c1ccco1	0.668	4.1
COc1ccc(S(=O)(=O)Nc2ccccc2C(=O)NN2CCOCC2)cc1OC	·	2.6

Reprinted from the part before: 4 entries; new compounds follow.
SMILES	KSHV LANA nucl	Ab BasE inh
Cc1cc(C)c2c(n1)OC(N1CCOCC1)(C(F)(F)F)CC2=O (stereo not given)	-0.0875	1.6
COc1cccc2cc(-c3csc(Nc4cccc(C(F)(F)F)c4)n3)c(=O)oc12	·	1.6
O=C(Nc1ccc(Cn2nnc3ccccc32)cc1)c1ccco1	0.668	4.1
COc1ccc(S(=O)(=O)Nc2ccccc2C(=O)NN2CCOCC2)cc1OC	·	2.6
CCN(CC)C(=Nc1ccccc1)Nc1ccccc1	-1.37	-1.5
COC(=O)[C@@H](NC(=O)c1ccc2c(c1)S(=O)(=O)c1ccccc1C2=O)C(C)C	·	-5.0
Cc1ccc(C)n1NC(=O)c1ccc(Cl)cc1	-0.905	·
Cc1nc(N)cc(C[n+]2csc(CCO)c2C)n1	0.063	·
CC(C)OC(=O)C(C)Nc1ccc(F)c(Cl)c1 (stereo not given)	0.591	-0.2
CCOc1ccc(NC(=O)CN(Cc2ccccc2)S(=O)(=O)c2ccc(C)cc2)cc1	·	2.2
CC1(C)CC(=O)c2sc3nc(-c4ccc(Br)cc4)cn3c2C1	-0.119	1.9
CCC(=O)Nc1c2c(nn1-c1ccccc1)CS(=O)C2 (stereo not given)	2.65	1.1
CN(C)c1ccc(/C=N/n2c(=O)[nH][nH]c2=O)cc1	-0.109	1.5
CCCCn1c(O)c(C#N)c(C)c(N=Nc2ccc(OC)cc2)c1=O	-7.98	-8.0
Cc1cc(C(=O)N(C)Cc2ccc(Br)cc2)no1	·	-1.4
CCCc1nc(N)c(C#N)c(-c2ccccc2)c1CC	·	1.4
CCn1c(C(=O)O)c(CNCc2cccs2)c2ccc(C)cc21	0.499	-2.5
CNCc1ccc(C(C)(C)C)cc1	·	-0.4
CCN(CC)CCNCc1cccs1	-0.827	-0.3

Next part; the last 3 above are carried over.
SMILES	KSHV LANA nucl	Ab BasE inh
CCn1c(C(=O)O)c(CNCc2cccs2)c2ccc(C)cc21	0.499	-2.5
CNCc1ccc(C(C)(C)C)cc1	·	-0.4
CCN(CC)CCNCc1cccs1	-0.827	-0.3
COc1ccccc1N1CCN(CCCNC(=O)Cn2cnc3onc(C)c3c2=O)CC1	·	1.9
COc1ccccc1NC(=O)c1ccc(N2CC3CC(C2)c2cccc(=O)n2C3)c(NC(=O)c2cccnc2)c1 (stereo not given)	-0.889	-1.5
COCCCn1c(=O)c2ccccc2n(CC(=O)NC2CCCC2)c1=O	-0.986	0.8
Cc1nn(Cc2nnc(-c3cc(C(F)(F)F)cc(C(F)(F)F)c3)o2)c(C)c1Br	·	0.6
Nc1c(-c2n[nH]c(=S)n2-c2ccc(Cl)cc2Cl)cnn1-c1ccccc1	·	1.5
Cc1cc(C)n(-c2ccc(C(=O)Oc3ccc4oc5c(c4c3)CCCC5)cc2)n1	·	-1.4
CN(C)c1ccncc1C(O)C(F)(F)F (stereo not given)	-0.435	·
O=C1Nc2ccccc2SC1CC(=O)N1CCN(c2ccc(C(F)(F)F)cn2)CC1 (stereo not given)	·	0.2
CCOCCc1c(O)nc(SCC(=O)NC(C)c2ccccc2)[nH]c1=O (stereo not given)	-0.003	2.3

An excerpt from above in order of the KSHV LANA nucl value, rising:
molecule | KSHV LANA nucl
CCCCn1c(O)c(C#N)c(C)c(N=Nc2ccc(OC)cc2)c1=O | -7.98
Nc1ccc(CC2C(=O)Nc3ccccc32)cc1 (stereo not given) | -0.977
CCN(CC)CCNCc1cccs1 | -0.827
N#C/C(=C/c1ccc(Sc2nc3ccccc3[nH]2)o1)C(=O)N1CCOCC1 | -0.508
CCCCOc1ccc2nc3c(nc2c1)C(=O)c1ccccc1C3=O | -0.427
CCn1c(C(=O)O)c(CNCc2cccs2)c2ccc(C)cc21 | 0.499
